# Compound activity as filed in PubChem.
# miR-21 reporter – qHTS Assay for Modulators of miRNAs and/orActivators of miR-21; HeLa miR-21 FLuc reporter, luciferase, 48 h; Potency, µM (doses to about 38.3 µM), inactives show at the top dose reporter change, positive = more light; 340,000 tested, under 10 active; active = well fitted rising curve with a large enough effect; inconclusive = small, poorly fitted or top-dose-only effect; inactive = no such curve, though single readings can be large or run the other way;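 also: % of control where 0% means no effect; miR-21 action dims this reporter so a rising signal means less miR-21 action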
#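 HeLa cells stably expressing CMV-driven firefly luciferase with a downstream miR-21 binding sequence, endogenously expressing miR-21, were treated with titrations (up to about 40uM final) for 48 hours at 37 degree Celsius. Luciferase luminescence was read after lysis.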
# Rango-impB inh – qHTS Assay for Inhibitors of Rango (Ran-regulated importin-beta cargo) - Importin beta complex formation. Importin subunit beta-1 (Homo sapiens), Q14974. Rango CFP/YFP FRET sensor + importin beta, 45 min. Potency, µM (highest dose often 92.2 µM), for the others: at the top dose inhibition of complex formation. actives 0.031% (n = 340,000). AID 540263, 2011; active = rising FRET ratio curve, often small or poorly fitted; inconclusive = mostly compound fluorescence or quenching in the first reads; inactive = flat curves in all reads;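 also: potency is read from the fitted curve at half-maximal effect; 0% = DMSO wells and 100% = buffer wells lacking importin beta; nearly all actives have a fitted effect of over 15% in size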
# Target sequence (Q14974 whole entry, looked up): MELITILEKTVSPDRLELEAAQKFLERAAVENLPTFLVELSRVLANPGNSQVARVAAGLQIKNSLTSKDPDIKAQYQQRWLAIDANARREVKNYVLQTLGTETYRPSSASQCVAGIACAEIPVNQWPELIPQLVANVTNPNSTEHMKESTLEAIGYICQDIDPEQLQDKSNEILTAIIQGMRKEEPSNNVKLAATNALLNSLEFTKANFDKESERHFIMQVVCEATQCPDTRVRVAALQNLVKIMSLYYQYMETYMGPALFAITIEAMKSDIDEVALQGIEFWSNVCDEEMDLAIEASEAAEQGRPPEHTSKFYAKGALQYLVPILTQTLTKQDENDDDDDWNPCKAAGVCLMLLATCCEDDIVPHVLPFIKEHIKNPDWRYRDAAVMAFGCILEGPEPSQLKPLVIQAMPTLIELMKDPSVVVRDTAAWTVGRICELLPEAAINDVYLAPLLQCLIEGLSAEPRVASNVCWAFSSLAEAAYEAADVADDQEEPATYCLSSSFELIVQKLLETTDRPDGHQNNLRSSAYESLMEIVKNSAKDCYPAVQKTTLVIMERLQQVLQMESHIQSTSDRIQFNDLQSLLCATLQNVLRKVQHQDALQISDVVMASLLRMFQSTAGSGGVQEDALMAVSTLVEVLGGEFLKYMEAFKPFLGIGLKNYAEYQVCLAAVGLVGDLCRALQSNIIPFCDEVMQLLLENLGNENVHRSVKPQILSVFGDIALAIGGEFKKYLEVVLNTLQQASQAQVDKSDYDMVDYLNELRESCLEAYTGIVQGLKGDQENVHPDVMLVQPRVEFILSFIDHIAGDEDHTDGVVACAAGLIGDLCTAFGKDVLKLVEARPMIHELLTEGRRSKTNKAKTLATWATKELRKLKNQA
#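 Inhibition scored from the CFP 486 nm/YFP 530 nm FRET ratio 45 min after adding 0.125 microM importin beta to 50 nM Rango biosensor preincubated 5 min with compound (room temperature, PBS with DTT, Tween-20, BSA). No-importin wells as positive control.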
# GLA inh pH 4.5 – qHTS Assay for Inhibitors of Human alpha-Galactosidase at pH 4.5. AID 1467, 2008. purified enzyme, 4-MU-alpha-Gal fluorescence, pH 4.5. activity change, negative = inhibition, % at 105 µM. 230,000 tested, under 10 active; inconclusive = small, poorly fitted or top-dose-only inhibition, or a rising curve; inactive = flat fitted curve, though single readings scatter; no compound was filed as active;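 also: 0% = full activity with enzyme and -100% = basal without enzyme; dose as in the result columns while the protocol names 77 µM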
# Rango dissoc inh – qHTS Assay for Inhibitors of RanGTP induced Rango (Ran-regulated importin-beta cargo) - Importin beta complex dissociation. AID 540253, 2011. Biochemical FRET Rango-importin beta, RanGTP-induced dissociation. Snurportin-1 (Homo sapiens) + GTP-binding nuclear protein Ran (Homo sapiens) + Importin …. actives 0.071% (n = 340,000). Potency, µM (doses to about 46.1 µM), for inactives: at the top dose activity change, negative = inhibition; active means falling FRET ratio curve, often poorly fitted, with flat reads before Ran was added; inconclusive means other falling curves, or compound fluorescence or quenching; inactive means flat or rising ratio curve;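 also: potency is read from the fitted curve at half-maximal effect; % of control where 0% means no effect; nearly all actives have a fitted effect of over 45% in size; -100% = wells without RanGTP and RCC1; the record marks most hits as doubtful in a second field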
#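 Quantitative HTS using a FRET biosensor: 0.1 uM Rango, 0.25 uM importin beta, 0.6 uM Ran, 2 mM GTP, 0.2 uM RCC1 final, PBS with DTT, Tween-20 and BSA. Post-read taken 45 min after Ran addition.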
# * = called active by the depositor; ? = inconclusive; · = no result given; & = joins results of further samples. The list is partial. The share of hits here may be higher or lower than overall.
canonical_smiles,GLA inh pH 4.5,Rango-impB inh,miR-21 reporter,Rango dissoc inh
COCC(Cc1ccccc1)NC(=O)Cn1cc(C)c(=O)[nH]c1=O (stereo not given),·,2.1%,·,-13%
O=C(O)c1c(NC(=O)N2CCOCC2)sc2c1CCCC2,·,2.1%,-15%,-13%
CN(C)S(=O)(=O)c1ccc(C(=O)NCc2nnc(SCC(=O)N3CCCCCC3)o2)cc1,·,-1.1%,6%,-15%
CC(=O)C1=C(Nc2ccccc2)CC(C)(O)C(C(C)=O)C1c1ccccc1 (stereo not given),0,4.2%,-6%,-12%
O=C(O)CNC(=O)/C(=C/c1ccco1)NC(=O)/C=C/c1ccccc1,1,0.2%,-3%,2%
O=C(CN1C(=O)COc2ccc(S(=O)(=O)N3CCOCC3)cc21)Nc1cccc(Cl)c1,·,2.6%,-3%,-8%
COc1ccccc1C(=O)N1CCN(c2cccc(Cl)c2)CC1,·,-5.3%,21%,-6%
COc1ccc(N2CCN(S(=O)(=O)c3c(C)[nH]c(C)c3C(=O)N3CCCCC3)CC2)cc1,·,-0.8%,-8%,-3%
Cc1ccc(C(C)(C)NC(=O)C2CCC(=O)N(CC3CCCCC3)C2)cc1 (stereo not given),·,-2.7%,0%,3%
N#Cc1ccc(OCC(=O)NCCc2ccc(S(N)(=O)=O)cc2)cc1,9,1.7%,1%,-14%
COC(=O)C1(CCSC)NC(c2ccc(O)cc2)C2C(=O)N(c3ccc4c(c3)OCCO4)C(=O)C21 (stereo not given),3,-5.8%,2%,30%
CCC(C)NC(=O)CN1C(=O)NC2(CCOc3ccccc32)C1=O (stereo not given),·,-0.2%,0%,10%
CC(C)CN(C(=O)COC(=O)CNC(=O)c1sc2ccccc2c1Cl)C1CCS(=O)(=O)C1 (stereo not given),·,-1.6%,·,-31%
O=C1CC(C(=O)Nc2ccccc2)S/C(=N\NC(=O)c2ccccc2Cl)N1 (stereo not given),-7,0.3%,0%,0%
FC(F)(F)Sc1ccc(NC(=S)NCc2ccccc2)cc1,-8,-1.1%,25%,4%
Cc1cc(=O)[nH]c(N/N=C/c2ccc(Cl)c([N+](=O)[O-])c2)n1,0,0.2%,-4%,-4%
FC(F)Oc1ccc(-c2csc(Cc3nnc4n3CCCCC4)n2)cc1,-1,5.4%,-2%,4%
CCOc1ccc(NC(=O)CN(C)Cc2ccc3c(c2)OCO3)cc1S(=O)(=O)N1CCCC1,·,0.2%,·,0%
Cc1nc(NS(=O)(=O)c2cccc([N+](=O)[O-])c2)sc1C(C)(C)C,·,6.4%,-3%,-3%
CC(=O)c1c(C)[nH]c(C(=O)Nc2ccc(C)c(S(=O)(=O)Nc3ccc(C)cc3C)c2)c1C,-9,0.1%,24%,-10%
COc1ccc(NC(=O)C2CCN(C(=O)c3cccs3)CC2)cc1OC,8,-0.3%,-4%,19%
CCOc1cc(CN2CCCC(N3CCN(c4ccc(F)cc4)CC3)C2)ccc1OC (stereo not given),·,1.2%,14%,0%
O=C(c1cc(Cl)cc(Cl)c1)N1CCN(c2cc(C(F)(F)F)nc3ccccc23)CC1,-2,-0.2%,-5%,2%
COCCNC(=O)c1ccc(S(=O)(=O)N2CCCc3ccccc32)cc1,·,-2.2%,-2%,1%
Cc1ccccc1NC(=O)c1cccnc1,·,-0.9%,1%,0%
S=P(c1ccc(N2CCOCC2)cc1N1CCOCC1)(N1CCOCC1)N1CCOCC1,-3,0.7%,4%,-7%
COc1ccc(/C=C/C(=O)N(C)C2CCS(=O)(=O)C2)cc1 (stereo not given),·,3.2%,·,?
CC1=NN(c2ccccc2)C(=O)/C1=C\c1cn(C)c2ccccc12,3,3.4%,-2%,-1%
CC(=O)Nc1c2c(nn1-c1ccc(F)cc1)CSC2,·,0.0%,0%,7%
CCCn1c(SCC(=O)Nc2ccc(Cl)cn2)nnc1C1CC1,·,-1.1%,2%,29%
N#Cc1c(SCC(=O)O)nc(N2CCOCC2)c2c1CCCC2,8,-2.2%,0%,-11%
COc1ccccc1N/N=C1\COC(C)(C)CC1=O,-5,-3.1%,-41%,19%
CC(=O)NC(Cc1ccccc1C)C(=O)NC1CCN(C(=O)c2ccc(C)cc2)CC1 (stereo not given),4,0.1%,1%,7%
Cc1ccc(NC(=S)NC2CC3CCC(C2)N3Cc2ccco2)c(C)c1 (stereo not given),2,0.9%,-4%,17%
Nc1nc(=S)ss1,·,-0.2%,·,12%
COc1ccc(C)cc1NC(=S)NN1CCN(C)CC1,6,-8.3%,-4%,11%
COc1ccc2ccc(OCC(=O)Nc3cc(C)on3)cc2c1,·,2.8%,·,20%
Cc1n[nH]c(C)c1S(=O)(=O)N1CCOCC1,5,-1.7%,-3%,2%
Cc1cccc(C(=O)NCC(=O)OCc2cc(=O)n3ccsc3n2)c1,·,0.5%,·,3%
CN(C)c1ccc(/C=N/NC(=O)C2COc3ccccc3O2)o1 (stereo not given),0,-0.7%,-6%,-8%
N#CCCN(C(=O)COC(=O)c1ccc(CNS(=O)(=O)c2ccc(F)c(Cl)c2)cc1)c1ccc(F)cc1,18,-1.3%,0%,12%
O=C(N/N=C/c1c(Cl)nc2ccccn2c1=O)c1cccnc1,1,?,0%,?
Cc1cccc(-n2nc3c(c2NC(=O)c2ccco2)CS(=O)C3)c1C (stereo not given),6,0.0%,-1%,13%
Cc1c(NC(=O)c2nn(CC(C)C)c(=O)c3ccccc23)c(=O)n(-c2ccccc2)n1C,·,3.3%,·,12%
O=C(Cc1ccc(Cl)cc1)NC1CC1,-1,-0.8%,-1%,6%
C/C(NCc1ccccc1)=C(\C#N)C(=O)NCc1ccccc1,-3,-0.9%,-22%,0%
O=C(COC(=O)/C=C/c1ccc(F)cc1)NC1CC1,·,-1.2%,·,4%
O=C(NCc1cccc(Br)c1)C1CC(c2ccccc2C(F)(F)F)=NO1 (stereo not given),-2,0.5%,29%,6%
Cc1ccccc1N1CC(C(=O)Nc2nnc(SCC(=O)Nc3nccs3)s2)CC1=O (stereo not given),-1,-0.2%,-4%,-14%
O=S(=O)(NCc1ccccn1)c1ccccn1,·,-1.4%,-3%,-6%
COc1ccc2nc(SCC(=O)Nc3ccc(S(=O)(=O)Nc4onc(C)c4C)cc3)[nH]c2c1,5,2.1%,-7%,-13%
NC1=NC(c2ccc(Cl)cc2)C(C(=O)c2ccccc2)N1 (stereo not given),2,-3.7%,?,-16%
O=C1CCC(=O)N1c1ccccc1-c1ccccc1,0,0.0%,-3%,-12%
O=C(CN(Cc1ccccc1)C(=O)CNS(=O)(=O)c1ccc(F)cc1)NCc1ccco1,·,-4.2%,-1%,-3%
Nc1ccccc1-c1nnc(SCc2ccccc2F)[nH]c1=O,-4,4.0%,-4%,12%
CC(C)C1N(S(=O)(=O)c2ccccc2)CCN1S(=O)(=O)c1ccccc1,-5,2.9%,-1%,3%
COc1ccc(-n2cc(C(=O)Nc3cc([N+](=O)[O-])ccc3OC)c3ccccc3c2=O)cc1,-8,-0.2%,7%,-10%
Nc1cc(-c2ccc(Br)cc2)nn1Cc1ccccc1,-29,4.5%,-9%,13%
Cc1ccc(Nc2nc(N)nc(CN3CCN(Cc4ccc5c(c4)OCO5)CC3)n2)cc1,-1,0.5%,5%,0%
O=C(c1cccc(S(=O)(=O)N2CCOCC2)c1)N1CCCc2ccccc21,-5,-0.5%,-4%,-9%

# One compound at a time, as listed above.
# O=C(O)c1c(NC(=O)N2CCOCC2)sc2c1CCCC2 in the list: GLA inh pH 4.5 = ·; Rango-impB inh = 2.1%; miR-21 reporter = -15%; Rango dissoc inh = -13%
# COC(=O)C1(CCSC)NC(c2ccc(O)cc2)C2C(=O)N(c3ccc4c(c3)OCCO4)C(=O)C21 (stereo not given) in the list: GLA inh pH 4.5 = 3; Rango-impB inh = -5.8%; miR-21 reporter = 2%; Rango dissoc inh = 30%

# (list continues)
canonical_smiles,GLA inh pH 4.5,Rango-impB inh,miR-21 reporter,Rango dissoc inh
CC[C@]12c3[nH]c4cc(CCC(=O)N(C)C)ccc4c3CCN1C(=O)[C@@H](CC(=O)NCCN1CCOCC1)C[C@@H]2C(=O)N1CCN(C(=O)c2ccco2)CC1,·,-1.7%,·,10%
O=C(NCC(c1ccco1)N1CCCC1)c1cc(=O)[nH]c2ccccc12 (stereo not given),·,-1.3%,·,-2%
Cc1ccc(CCC(=O)Nc2ccccc2C(=O)O)o1,·,-1.2%,-59%,?
S=c1[nH]nc([C@@H]2C[C@H]2c2ccccc2)n1-c1ccccc1Cl,3,0.4%,-11%,5%
CCCCC(NC(=O)c1ccccc1)C(=O)OCC(=O)N1c2ccccc2Sc2ccccc21 (stereo not given),-7,-0.3%,-1%,-3%
COc1ccccc1C(c1nnnn1C(C)(C)C)N1CCCc2ccccc21 (stereo not given),-7,-2.9%,-1%,10%
CCOc1cc(C(F)(F)F)cnc1/C(N)=N/O,-14,-5.9%,-4%,0%
Cc1ccccc1C(=O)NNC(=S)NC(=O)c1cccnc1,-3,-0.7%,-11%,-2%
COc1cc2c(cc1OC)C(=Cc1ccc(N(C)C)cc1)C=C2,·,0.6%,·,-9%
Cc1ccc(Cl)cc1NC(=O)Cn1nc(-c2cccs2)ccc1=O,·,-1.8%,-5%,0%
O=C(O)c1cccc(Sc2ccc(Br)cc2C(=O)O)c1,·,-0.3%,·,-5%
COc1cc(/C=C2\C(=N)N3N=C(S(C)(=O)=O)SC3=NC2=O)ccc1OS(=O)(=O)c1ccc(C)cc1,·,?,-4%,-1%
COc1ccc(C(=O)c2ccccc2C(=O)c2ccccc2)cc1,·,2.7%,·,17%
O=C(O)C1C2C=CC3(O2)C1C(=O)N1c2ccccc2COC13 (stereo not given),-4,5.5%,0%,1%
COc1ccc(C2(C)NC(=O)N(CC(=O)NCCC3=CCCCC3)C2=O)cc1OC (stereo not given),5,-0.3%,4%,2%
COc1cc(C(=O)NCc2ccc(F)cc2)cc(Cl)c1OC,-5,-3.9%,-2%,20%
Cc1cccc(CS(=O)(=O)Cc2ccc(C(=O)NC(C)c3ccccc3)o2)c1 (stereo not given),·,-3.5%,0%&2%,-8%
O=C(Nc1ccc2c(c1)OCO2)C1CCN(c2ccc(S(=O)(=O)N3CCOCC3)cc2)CC1,8,-1.9%,-15%,-3%
COc1ccc(-c2nc3cnccn3c2Nc2ccc3c(c2)OCO3)cc1,-5,?,-7%,-13%
O=C(CCCCCn1c(=S)[nH]c2ccc(N3CCOCC3)cc2c1=O)NCc1ccc2c(c1)OCO2,-4,?,-4%,?
CCCCNC(=O)c1onc(CSc2cccc(OC)c2)c1C(=O)O,-4,0.8%,-7%,0%
CCOc1ccc(N2CC(C(=O)Nc3cccc(S(=O)(=O)NC4=NCCC4)c3)CC2=O)cc1 (stereo not given),-13,1.6%,-2%,-8%
CC(C)CC(=O)Nc1ccc2c(c1)oc1ccccc12,-23,0.3%,-54%,27%
CCN1CCN(C(c2ccc(C(F)(F)F)cc2)c2ccc3cccnc3c2O)CC1 (stereo not given),·,1.9%,25%,-6%
CC[C@H](C)[C@H](NC(N)=O)C(=O)Nc1ccc2c(c1)OCO2,-8,3.2%,-5%,-3%
NC(=O)Cn1cc(C(=O)C(=O)N2CCOCC2)c2ccccc21,·,-3.3%,2%,0%
Cc1cc(/C=C2\C(=O)NN(c3ccccc3)C2=O)c(C)n1-c1ccccc1O,-13,0.3%,-40%,0%
CC(=O)NC(c1cc(Cl)c2ccccc2c1O)C(C)C (stereo not given),·,-2.1%,·,0%

# Taken from above:
# `Cc1cc(/C=C2\C(=O)NN(c3ccccc3)C2=O)c(C)n1-c1ccccc1O` – Rango dissoc inh = 0%
# `NC(=O)Cn1cc(C(=O)C(=O)N2CCOCC2)c2ccccc21` – miR-21 reporter = 2%
